Compound activity as filed in PubChem BioAssay.
VDR inh: blocks the human vitamin D receptor | VDR-SRC2-3 peptide fluorescence polarization, 2 h | Potency, µM, for inactives: max response, negative = inhibition, actives largely listed as inhibitors | 400,000 tested, 0.93% active | AID 504847; active = well fitted inhibition curve with a large enough effect; inconclusive = small, poorly fitted or top-dose-only effect, or another doubt; inactive = no such curve, though single readings can be large or run the other way; also: series mostly up to about 120 µM
Target sequence (P11473 whole entry, looked up): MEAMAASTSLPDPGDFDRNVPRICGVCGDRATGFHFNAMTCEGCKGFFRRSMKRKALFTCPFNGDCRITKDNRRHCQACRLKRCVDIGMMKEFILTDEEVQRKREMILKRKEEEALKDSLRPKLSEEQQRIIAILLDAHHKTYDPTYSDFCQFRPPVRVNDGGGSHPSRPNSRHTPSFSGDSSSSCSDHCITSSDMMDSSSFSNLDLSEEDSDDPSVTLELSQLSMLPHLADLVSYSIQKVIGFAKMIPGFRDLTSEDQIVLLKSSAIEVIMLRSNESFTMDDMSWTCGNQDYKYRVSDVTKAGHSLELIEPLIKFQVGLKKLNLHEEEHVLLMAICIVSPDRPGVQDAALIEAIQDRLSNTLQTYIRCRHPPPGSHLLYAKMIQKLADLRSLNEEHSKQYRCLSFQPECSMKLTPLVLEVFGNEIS
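Fluorescence polarization assay measuring small-molecule disruption of VDR binding to the coregulator peptide SRC2-3. Compounds were pin-transferred (23 nl) into the reagent mix and incubated 2 h at room temperature before reading.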
* marks the source's active call; other numbers are inactive results; ? = inconclusive; & = joins results of further samples. % is scaled to controls: 0 for no effect and ±100 for the full control effect; potency is read from the fitted curve at half-maximal effect. These rows are one share of the data, so the mix of outcomes need not match the whole.

SMILES	VDR inh
N#Cc1nc(Cc2cccc3ccccc23)oc1N1CCN(c2ccccc2)CC1	-1%
O=S(=O)(Nc1ccccn1)c1cnc(Cl)c(Br)c1	6%
CCOC(=O)C1CCN(C(=O)CCCN2C(=O)c3ccccc3C2=O)CC1	-13%
COc1ccc(-c2cn3c(n2)sc2cc(C(=O)NCCc4ccccc4)ccc23)cc1	16%
Cc1ccc(-n2nc3c(SCCN4CCOCC4)nnc(C)c3c2C)cc1	?
CCOC(=O)c1cnc(-c2ccccc2)nc1Oc1ccccc1	2%
CC1=CC(C)C(/C=N/N=C(N)N)C(C)C1 (stereo not given)	13%
Cc1cccc(C(=O)N/N=C2/SCC(=O)N2Cc2ccccc2)c1	-10%
C#CCOCCOCCOCCNc1nc(N2CCN(C(=O)Cn3cc(CCO)nn3)CC2)nc(N2CCN(C(=O)[C@H](CCCCN)n3cc(CC(C)O)nn3)CC2)n1 (stereo not given in full)	0%
CCC1C(C#N)=C(N)OC2=C1C(=O)CC(C)(C)C2 (stereo not given)	9%
CC(=O)OCCNc1nc(-c2ccccc2)nc2ccccc12	7%
Cn1cc(CN2CCc3sccc3C2)c(-c2ccccc2F)n1	-12%
CCCn1nnnc1SCC(=O)Nc1sc(C)c(C)c1C#N	-4%
COc1ccc(/C=C/C(=O)NC2=NCCS2)cc1OC	-7%
CC1CCN(S(=O)(=O)c2ccc(NC(=O)c3ccncc3)cc2)CC1	-7%
Cc1ccc(-c2cc(C(=O)Nc3ccc4c(c3)OCCO4)c3ccccc3n2)cc1	25%
COc1cc(OC)c(OC)cc1CN1CCN(C(=O)c2cccc3ccccc23)CC1	-9%
Cc1cc2oc(C(=O)Nc3sc4c(c3C(=O)NCC3CCCO3)CCCC4)cc(=O)c2cc1C (stereo not given)	1%
O=C(O)c1cccc(NC(=O)c2ccc3c(c2)C(=O)N(c2cccc([N+](=O)[O-])c2)C3=O)c1	-12%
CCCCC#Cc1ccc(C(=O)NNC(=O)Nc2cc(Cl)cc(Cl)c2)o1	-23%
Cc1cc2c(cc1S(=O)(=O)NCc1ccc(F)cc1)n(C)c(=O)c(=O)n2C	18%
O=C1C(=O)N(C2CCNCC2)CCN1Cc1ccccc1	2%
CCOC(=O)c1cn2nc(-c3ccc(OC)cc3)cc2nc1C1CCN(C(=O)OC(C)(C)C)CC1	-2%
CCOc1ccc(NC(=O)C(C)Oc2ccccc2C(=O)Nc2cccc(Cl)c2Cl)cc1 (stereo not given)	-12%
Clc1cccc(-n2ncc3c(NCCc4ccccc4)ncnc32)c1	3%

(listing goes on)
SMILES	VDR inh
COCCN(Cc1ccc(F)cc1)C(=O)c1cc2ccccc2oc1=O	4%
CCCn1c(SCC(=O)Nc2ccccc2-c2ccccc2)nnc1-c1ccoc1C	6%
CN(C)CCn1c2c(c(SCC(=O)Nc3cccc4ccccc34)nc1=O)CCCC2	-13%
CCC(C)(C(=O)NC1CCCCC1)N(C(=O)CNC(C)=O)c1c(C)n(C)n(-c2ccccc2)c1=O (stereo not given)	-4%
CC(=O)Nc1ccc(C(=O)OCC(=O)NC(=O)NC2CCCCC2)cc1	-8%
Cc1ccc(C(=O)Nc2ccc(C)c(S(=O)(=O)Nc3ccccc3Cl)c2)s1	-8%
CN1CCN(Cc2nc3ccccc3c(=O)n2CC#N)CC1	-9%
COC(=O)[C@@]1(Cc2ccccc2)[C@H]2C(=O)N(C)C(=O)[C@H]2[C@H]2CN=C(SCC(=O)c3ccccc3)N21	-14%
O=C(NCc1ccccn1)c1ccc(Cn2c(=S)[nH]c3ccc(Br)cc3c2=O)cc1	-9%
CCc1ccc(N(C(=O)c2ccco2)C(C(=O)NC2CCCC2)c2ccncc2)cc1 (stereo not given)	21%
Cc1cccc(N2C(=O)CSC2c2cccnc2)c1 (stereo not given)	-2%
Fc1ccc(-c2cc(C(F)(F)F)nc(N3CCCCC3)n2)cc1	1%
CCCCn1c(=O)c2oc3ccccc3c2n(CC(=O)Nc2cccc(Cl)c2)c1=O	-1%
CN(C)CCCN1C(=O)c2cc3ccccc3cc2C1=O	0%
O=S(=O)(c1ccc(Br)cc1)c1nc(-c2ccco2)oc1SCc1ccccc1Cl	13%
Cc1ccccc1C(=O)Oc1cc(-c2ccc3c(c2)OCO3)cc(=O)c2c(C)oc(C)c12	-5%
Cc1cccc(-c2cc3nc4c(c(N5CCC6(CC5)OCCO6)n3n2)CCCC4)c1	2%
CCOC(=O)CSc1nc(C)[nH]c1[N+](=O)[O-]	-14%
N#CC1=C(N2CCOCC2)/C(=C\c2ccccc2)CC1	1%
CCN(CC)CCCNC(=O)C1c2ccccc2C(=O)N1Cc1ccc(C)cc1 (stereo not given)	-13%
CC(=O)c1c(O)cc(C(C)C)n(-c2ccccc2)c1=O	-12%
NCc1nc(-c2ccc(Cl)cc2)no1	4%
O=C(NCC(c1ccco1)N1CCN(c2ccccc2F)CC1)c1ccco1 (stereo not given)	-5%
CC(=O)Nc1nc2ccccc2n1CCOc1ccccc1	-12%
Cc1ccnc(NS(=O)(=O)c2ccc(NC(=O)c3c(-c4ccccc4Cl)noc3C)cc2)n1	-10%

Reprinted from the part before: 7 compounds; new compounds follow.
SMILES	VDR inh
N#CC1=C(N2CCOCC2)/C(=C\c2ccccc2)CC1	1%
CCN(CC)CCCNC(=O)C1c2ccccc2C(=O)N1Cc1ccc(C)cc1 (stereo not given)	-13%
CC(=O)c1c(O)cc(C(C)C)n(-c2ccccc2)c1=O	-12%
NCc1nc(-c2ccc(Cl)cc2)no1	4%
O=C(NCC(c1ccco1)N1CCN(c2ccccc2F)CC1)c1ccco1 (stereo not given)	-5%
CC(=O)Nc1nc2ccccc2n1CCOc1ccccc1	-12%
Cc1ccnc(NS(=O)(=O)c2ccc(NC(=O)c3c(-c4ccccc4Cl)noc3C)cc2)n1	-10%
CC(C)c1nc(SCC(=O)Nc2ccc(N3CCOCC3)cc2)c2ccccc2n1	-8%
CCCC(=O)Nc1ccc(C(=O)Nc2nnc(COCC)s2)cc1	-3%
CC(C)c1ccc(NC(=O)NC(C)c2ccc3c(c2)OCO3)cc1 (stereo not given)	20%
O=C(NCc1ccco1)C(c1cccs1)N(C(=O)Cc1cccs1)c1ccccc1 (stereo not given)	-7%
CCOCc1nnc(NC(=O)c2cc(OC)c(OC)c(OC)c2)s1	-3%
O=S(OCCN1CCOCC1)C(c1ccccc1)c1ccccc1 (stereo not given)	7%
O=C(NCC(c1ccco1)N1CCCCC1)c1ccc(NS(=O)(=O)c2ccc(F)cc2)cc1 (stereo not given)	-14%
Cc1cc(Cl)ccc1OCC(=O)NCc1ccncc1	12%
O=C(c1ccc(F)cc1)N1CCN(c2ccc(N3CCOCC3)nn2)CC1	-2%
COc1ccc(NC(=O)CN2CCN(CC(=O)Nc3ccc(F)cc3F)CC2)cc1	-5%
CC(C)n1nc(C(=O)Nc2nnc(C3CC3)s2)c2ccccc2c1=O	-10%
CCOC(=O)C1=CN(Cc2ccco2)S(=O)(=O)N(C)C1c1ccc2ccccc2c1 (stereo not given)	-20%
CC(C)(O)CC[C@@H](O)[C@](C)(O)C1CC[C@@]2(O)C3=CC(=O)[C@@H]4C[C@@H](O)[C@@H](O)C[C@]4(C)C3CC[C@]12C (stereo not given in full)	-6%
Oc1oc(-c2ccccc2Br)nc1/C=N/c1ccccn1	-10%
CCS(=O)(=O)NCC(c1cccnc1)N1CCN(c2ccccc2)CC1 (stereo not given)	0%
Cc1ccc(C(=O)NNC(=O)c2cc3ccccc3cc2O)cc1	-8%
O=C(/C=C/c1ccccc1[N+](=O)[O-])Nc1ccccc1	-22%
CCOCCCNC(=O)c1cc2c(=O)n3ccccc3nc2s1	7%&1%
CC(OC(=O)c1ccccc1C(=O)N(C)c1ccccc1)C(=O)Nc1ccc(C(N)=O)cc1 (stereo not given)	-4%
N#CC(c1ccc(Cl)nn1)c1ccccc1Cl (stereo not given)	-14%
Cc1ccc2oc(=O)c3cnn(CC(=O)N4CCCc5ccccc54)c3c2c1	4%
O=Cc1cc([N+](=O)[O-])ccc1N1CCN(Cc2ccc3c(c2)OCO3)CC1	-1%
CCCC(=O)NCCCc1nc2ccccc2n1CCC	3%
NC/C=C/C(=O)O	2%&3%&-11%&12%
CCN(CC)CCOC(=O)c1cccc2c1-c1ccccc1C2O (stereo not given)	?

Filtered by structure: the compounds so far containing an NH in an aromatic ring (2)
SMILES	VDR inh
O=C(NCc1ccccn1)c1ccc(Cn2c(=S)[nH]c3ccc(Br)cc3c2=O)cc1	-9%
CCOC(=O)CSc1nc(C)[nH]c1[N+](=O)[O-]	-14%

Continued.
SMILES	VDR inh
O=C1C=C(c2ccc(-c3ccccc3)cc2)C[C@@H](c2ccc3c(c2)OCO3)C1	1%
O=C(C(Cc1ccccc1)n1cccc1)N1CCN(c2ncccn2)CC1 (stereo not given)	-22%
COc1ccc(CSc2nc(N3CCOCC3)c3c(c2C#N)CC(C)(C)OC3)cc1	-1%
S=C(Nc1ccc(Cl)cc1Cl)N1CCCCC1	7%
CC(=O)c1ccccc1N(C(=O)c1ccco1)C(C(=O)NC1CCCC1)c1ccc(C)cc1 (stereo not given)	-10%
CCCNC(=O)COc1coc(CN2CCN(c3ccccc3OC)CC2)cc1=O	9%
S=c1[nH]nc(CSc2nc3ccccc3s2)o1	-7%
O=C(NCCN1CCNCC1)c1ccccn1	0%
CCOc1ccccc1CN1CCNC(=O)C1CC(=O)NCCc1ccccn1 (stereo not given)	-8%
Cc1ccc(C)c(N2C(=O)CC(Cc3ccc(Br)cc3)C2=O)c1 (stereo not given)	-18%
O=C(OCC(=O)N1CCC(Cc2ccccc2)CC1)c1cc(Cl)ccc1O	-11%
O=C(O)C(Cc1ccc2c(c1)oc1ccccc12)NCP(=O)(O)O (stereo not given)	1%
Cn1cnnc1SCC(=O)Nc1cccc(C(=O)O)c1	8%
CCOc1cc(S(=O)(=O)n2ccnc2)ccc1Br	7%
CCOc1ccc(/C=N/NC(=O)c2ccc(CSc3nc4ccccc4[nH]3)cc2)cc1	-9%
Cc1cccc(C)c1NC(=S)NCCc1ccc(O)c(O)c1	-19%
COc1ccc(C2=C(C(C)=O)Sc3nnc(-c4ccc(C)cc4)n3N2C(C)=O)cc1OC	7%
O=C(O)c1ccc(S(=O)(=O)N2CCC(NC(=O)C3CCCCC3)CC2)cc1	-19%
CCCCOc1ccc(Nc2nc(C)cc(C)c2C#N)cc1	-8%
CCc1nc2ccc(Cc3ccc4nc(CC)[nH]c4c3)cc2[nH]1	-12%
COC(=O)c1ccc(C)c(NC(=O)CN(c2ccc3c(c2)OCO3)S(C)(=O)=O)c1	1%
Cc1ccc(NS(=O)(=O)Cc2ccccc2)cc1Cl	-5%
OCCNc1nc(N2CCOCC2)nc(N2CCOCC2)n1	5%
CC1=C(C(=O)Nc2ccccc2C)C(c2ccccn2)n2nc(SCc3ccccc3F)nc2N1 (stereo not given)	-13%
CCC(C(=O)Nc1cccnc1)n1c(=O)[nH]c2ccccc2c1=O (stereo not given)	-11%

By substructure: the compounds so far with a COOH group (five)
SMILES	VDR inh
O=C(O)c1cccc(NC(=O)c2ccc3c(c2)C(=O)N(c2cccc([N+](=O)[O-])c2)C3=O)c1	-12%
NC/C=C/C(=O)O	2%&3%&-11%&12%
O=C(O)C(Cc1ccc2c(c1)oc1ccccc12)NCP(=O)(O)O (stereo not given)	1%
Cn1cnnc1SCC(=O)Nc1cccc(C(=O)O)c1	8%
O=C(O)c1ccc(S(=O)(=O)N2CCC(NC(=O)C3CCCCC3)CC2)cc1	-19%

Carrying on.
SMILES	VDR inh
CCN(CC)S(=O)(=O)c1nnc(NC(=O)c2ccco2)s1	1%
COC(=O)c1c(NC(=O)COc2c(C)ccc(C)c2C)sc2c1CCC(C)C2 (stereo not given)	-7%
Cc1cccc(OCC(=O)N(Cc2ccc(C(C)C)cc2)Cc2ccco2)c1C	18%
CCOC(=O)CN1C(=O)N[C@@H](c2cccs2)C(C(=O)OC)=C1C	-7%
CCCCC/C=C\C/C=C\C/C=C\CCCCC(N)=O	-3%
COc1ccc2c(c1)c1c(c(=O)n(-c3cccc(C)c3)c(=O)n1CC(=O)N1CCCC1)n2C	2%
CCOC(=O)CC(NC(=O)N1CCC(CN2CCC(C)CC2)CC1)c1ccccc1 (stereo not given)	-3%
Fc1ccc(-c2cc(C(F)(F)C(F)F)[nH]n2)cc1	-2%
O=C(N/C(=C\c1ccc(Cl)cc1)C(=O)N1CCOCC1)c1ccco1	4%
CC(=O)Nc1ccc(NC(=O)Nc2cccc3ccccc23)cc1	0%
CNC(=O)NC(=O)CSc1nnc(-c2ccco2)n1-c1ccccc1	-3%
COc1cccc(CNC(=O)CCCN2C(=O)CCn3nc(-c4cccn4C)cc32)c1	6%
c1ccc2c(c1)nnn2Cc1nnc2sc(-c3ccncc3)nn12	-12%
Cc1cccc(OCCC(=O)N(C)CC(=O)Nc2cccc3ccccc23)c1	0%
O=C(O)CCCCCNS(=O)(=O)c1ccc2c3c(cccc13)C(=O)N2	-21%
C=CC(C1=CC(=O)C=CC1=O)c1ccc(O)cc1 (stereo not given)	40µM*
CN(C)CCCN(C(=O)c1ccc(Br)s1)c1nc2cc3c(cc2s1)OCO3	-6%
COc1ccc(/C=C/C(=O)N2CCC(c3nc4ccccc4o3)CC2)cc1OC	3%
CCOC(=O)c1c(C)[nH]c(C)c1S(=O)(=O)N1CCN(c2ccc(Cl)cc2)CC1	5%
CN(C)c1ccc(NC(=O)CSc2nnc(-c3ccco3)c(-c3ccco3)n2)cc1	6%
O=C(CCNS(=O)(=O)c1ccc(OC(F)(F)F)cc1)N1CCN(C/C=C/c2ccccc2)CC1	-23%
O=C(N1CCN(c2ccccc2)CC1)C1(c2cccs2)CCOCC1	-17%
Cn1nc(N)c2c(-c3ccccc3)c(C#N)c(N)nc21	10%
